High-throughput results from PubChem BioAssay.
UCH37 DUB inh – blocks the human deubiquitinase UCH37; Q9Y5K5; purified proteasome/UCH37, Ub-AMC cleavage fluorescence; inhibition, % (test concentration not listed); 0.33% of 330,000 active; AID 588478;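 active = mean of two replicates above 20%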;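 note: 0% = compound-free wells with enzyme and 100% = wells lacking proteasome; stock transfer was 100 nL into about 20 µL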
Target sequence (Q9Y5K5 whole entry, looked up): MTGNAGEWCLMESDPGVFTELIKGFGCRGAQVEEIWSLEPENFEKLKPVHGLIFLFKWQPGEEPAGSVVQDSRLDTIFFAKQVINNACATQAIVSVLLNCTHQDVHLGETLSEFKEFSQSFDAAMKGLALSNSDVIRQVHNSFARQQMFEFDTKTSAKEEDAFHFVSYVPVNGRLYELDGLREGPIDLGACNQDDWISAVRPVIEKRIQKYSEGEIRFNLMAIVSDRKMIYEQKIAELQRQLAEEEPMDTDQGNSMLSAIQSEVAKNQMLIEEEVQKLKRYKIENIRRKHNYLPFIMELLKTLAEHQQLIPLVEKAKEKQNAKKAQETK
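Signal – fluorescence, ex 355 nm, em 460 nm · System – Proteasome-bound UCH37 · Input – 0.15 nM proteasome as dispensed · Timing – 30 min preincubation with enzyme, 25 min cleavage at room temperature · Read-out basis – percent inhibition of cleavage signal versus uninhibited and no-proteasome wells · Medium – Tris-HCl pH 7.4 with ATP-MgCl2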
FGF22 binding – shifts melting point of recombinant human FGF22 | AID 651658 | Q9HCT0 | 1.5% of 340,000 active | calls only at 9.99 µM | recombinant FGF22 thermal shift, SYPRO orange fluorescence; percent of sucrose octasulfate shift, DMSO zero;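 active = melting point raised past a set limit in the mean and every replicate; three in four hits are not shown here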
B2AR ag – agonists of human beta-2 adrenergic receptor inducing internalization. Am2.2-beta2AR cells, FAP receptor internalization, flow cytometry; reference of the scale not given here. response, % (no concentration beside the values). 0.43% of 340,000 active. AID 504454;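 active = response above a set limit, near 3 SD of response in nonfluorescent compounds, cut at about 42% in these data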;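 note: stock transfer was 100 nL into about 11 µL; a reference agonist was the positive control; negative values mostly stem from fluorescent compounds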
Target sequence (P07550 whole entry, looked up): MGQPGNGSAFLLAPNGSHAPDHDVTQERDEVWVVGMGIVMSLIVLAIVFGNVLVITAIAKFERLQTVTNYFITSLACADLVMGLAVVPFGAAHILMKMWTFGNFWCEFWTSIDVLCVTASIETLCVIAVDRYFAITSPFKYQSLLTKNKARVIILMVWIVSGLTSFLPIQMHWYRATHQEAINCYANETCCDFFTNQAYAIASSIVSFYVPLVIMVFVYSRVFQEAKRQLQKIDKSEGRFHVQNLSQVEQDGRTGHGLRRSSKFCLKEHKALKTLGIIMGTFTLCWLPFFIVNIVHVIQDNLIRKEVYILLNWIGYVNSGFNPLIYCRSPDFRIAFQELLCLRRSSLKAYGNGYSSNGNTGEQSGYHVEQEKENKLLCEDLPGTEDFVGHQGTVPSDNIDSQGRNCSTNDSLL
HNF4A DNA FP – change in binding of human HNF4 alpha to DNA. P41235. HNF4a-FITC DNA binding, fluorescence polarization, 1 h. activity change, % at 10 µM. 0.3% of 360,000 active. AID 1224865; in the data active = activity change above about 30%, passing the limit was not always enough;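 note: controls were the assay level and a saturating level of protein; the project sought stronger binding though the title names inhibitors; some compounds called inactive have numbers as strong as hits; positive values seem to mean higher polarization but the record does not say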
E coli growth – E. coli growth inhibition. Escherichia coli growth, OD600, 23 h; hits give low values. OD600 absorbance (no concentration beside the values). 0.21% of 330,000 active. AID 1053175;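 active = OD600 absorbance below the run mean of sample wells minus 3.6 SD, in any replicate, cut at about 0.56 in these data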;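 note: stock transfer was 300 nL into about 60 µL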
rRNA inh HTS – selective bacterial rRNA inhibition in E. coli; E. coli WT GFP vs humanized-ribosome RFP mutants, fluorescence, 24 h; hits give low values; DMSO median 0, no signal -100; GFP signal change (wild-type ribosome), % (concentration not given with the values); 1.6% of 350,000 active; AID 720706;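 active = significant combined selectivity score with lowered wild-type GFP, culture density cut under 30%, mutant RFP and density less affected; inactive = any of these conditions unmet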; note: one replicate is shown; some compounds called inactive have numbers as strong as hits
ALR inh – human ALR oxidase inhibition via reduced H2O2; purified ALR, DTT oxidation, H2O2 HRP-luminol luminescence; inhibition, % (test concentration not listed); 3.8% of 290,000 active; AID 485317;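 active = mean and each replicate at 75% or more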;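 note: stock transfer was 7.5 nL into about 7.5 µL; 0% = neutral wells and 100% = wells with inactivated enzyme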
Target sequence (P55789 whole entry, looked up): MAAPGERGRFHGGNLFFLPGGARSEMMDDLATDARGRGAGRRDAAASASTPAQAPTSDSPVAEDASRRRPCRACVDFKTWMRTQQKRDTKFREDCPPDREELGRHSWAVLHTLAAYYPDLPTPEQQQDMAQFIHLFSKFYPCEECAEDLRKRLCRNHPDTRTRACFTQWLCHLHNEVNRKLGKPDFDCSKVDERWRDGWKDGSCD
rRNA inh HTS OD600 – also measured in rRNA inh HTS; calls as there; OD600 change, %; measured here: OD600 growth;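 optical density of the mix in the first replicate; 0 = DMSO median and -100 = no signal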
rRNA inh HTS RFP – second read-out of rRNA inh HTS, no call of its own (marks repeat the call); RFP signal change, %; measured here: RFP humanized mutant strains;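 first replicate; 0 = DMSO median and -100 = no signal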
Active calls of the source: *; i = inactive; . = no result given; & = joins results of further samples. This is a subset, so the mix of outcomes need not match the whole.

Compound	UCH37 DUB inh	FGF22 binding	B2AR ag	HNF4A DNA FP	E coli growth	rRNA inh HTS	rRNA inh HTS OD600	rRNA inh HTS RFP	ALR inh
CC(C)Nc1ncnc2[nH]ncc12	-7.4	.	-4	3.4	0.71	7	13	-0.6	.
COc1cc(C(=O)NC(CCSC)C(=O)OCc2cc([N+](=O)[O-])cc3c2OCOC3)cc(OC)c1OC (stereo not drawn)	2.3	i	-5	3.0	0.67	21	36	3.2	-16
O=C(CNCc1ccc(Cl)cc1)Nc1ccc(C(=O)N2CCCCC2)cc1	4.9	i	-14	-1.1	0.65	-21	-27	5.2	-3
Cc1cn([C@H]2C[C@H](O)[C@@H](/C=C/C(=O)NCc3ccc4c(c3)OCO4)O2)c(=O)[nH]c1=O	.	i	.	-1.9	.	-3	-1	-5.0	.
COc1cc(/C=C2/C(=N)N3N=C(CC(=O)N4CCOCC4)SC3=NC2=O)ccc1OC(C)c1ccccc1 (stereo not drawn)	2.9	i	-3	1.6	0.7	2	4	3.1	12
Cc1[nH]c2ccccc2c1C(=O)COC(=O)c1cccc(S(=O)(=O)N2CCCCC2)c1	1.5	.	12	3.7	0.67	.	.	.	-5
CCOC(=O)Cc1nc2ccccc2[nH]1	-1.6	.	-3	-1.5	0.73	.	.	.	2
COc1cc(C2C(C(=O)c3ccc(C)o3)=C(O)C(=O)N2c2cc(C)on2)ccc1O (stereo not drawn)	46*	.	5	1.2	0.71	.	.	.	41
CC(=O)c1cccc(Nc2nc(-c3sc(N)nc3C)cs2)c1	5.4	i	9	3.2	0.59	-3	5	5.2	-28
C/C(=N/NC(=O)C1CCN(S(=O)(=O)c2ccc(C)cc2)CC1)c1cccc([N+](=O)[O-])c1	.	.	9	0.5	.	.	.	.	1
Clc1ccccc1OCc1nnc2n1CCCCC2	1.3	i	1	3.0	0.67	-3	0	4.0	-10
Cc1ccccc1C(=O)NC(C)C1CC2CCC1C2 (stereo not drawn)	6.1	i	3	1.1	0.71	-1	1	-0.2	.
O=[N+]([O-])c1cccc(Nc2nc(Cl)nc(Cl)n2)c1	1.3	i	-4	1.5	0.69	9	6	3.8	.
COC(=O)c1ccc(C(=O)N2CCCC(N3CCN(c4ccc(F)cc4)CC3)C2)nc1 (stereo not drawn)	2.1	i	5	-4.5	0.67	15	5	1.5	36
CC(C)Cc1nc(Cl)c(C#N)c2c1CCCC2	1.7	i	-3	0.5	0.69	2	7	-2.5	0
CCNC(=O)CP(=O)(c1ccccc1)c1ccccc1	0.8	.	-5	1.1	0.76	.	.	.	-10
CC1=CCC2C(=O)N(c3cccc(C(=O)NCc4ccccc4)c3)C(=O)C2C1 (stereo not drawn)	1.4	i	-11	0.0	0.68	-3	3	-0.5	.
COC(=O)c1ccccc1NC(=O)C1CC(=O)N(c2ccc(F)cc2)C1 (stereo not drawn)	-0.5	.	-4	2.8	0.76	.	.	.	.
Cc1ccc(S(=O)(=O)Nc2cccc3c2O[C@@H](CN(C)C(=O)Nc2ccc4c(c2)OCO4)[C@H](C)CN([C@@H](C)CO)C3=O)cc1	0.9	i	3	-3.4	.	-2&-7	-3&-6	0.3&1.5	5
CC1=NN(c2ccc(C)cc2)C(=O)/C1=C\C=C\c1ccccc1	1.0	i	9	2.3	0.7	2	0	-0.3	-4
CO/N=C(\C(=O)N[C@@H]1C(=O)N2C(C(=O)O)=C(COC(N)=O)CS[C@H]12)c1ccco1	.	i	0	-24	.	.	.	.	.
Cc1ccc(S(=O)(=O)N2C[C@@H]3[C@H]4CC[C@H](C4)[C@@H]3[C@@H](C)[C@H]2C#N)cc1	-2.2	i	34	2.3	0.73	-37	-44	-10	.
Cc1ccc(NS(=O)(=O)c2cccc(C(=O)NCCCN3CCCC3=O)c2)cc1	3.9	i	-2	4.0	0.66	-5	-1	-2.0	0
N#CC1(NC(=O)COC(=O)CSc2ccc(F)cc2)CCCCC1	1.2	i	-5	-1.3	0.68	2	-2	-0.5	.
CC(/C=N/n1c(COc2ccccc2)n[nH]c1=S)=C\c1ccco1	.	i	2	5.8	.	-6	1	-3.4	.
Cc1ccccc1OC(C)C(=O)Nc1cccnc1 (stereo not drawn)	-0.4	i	13	-1.2	0.66	9	10	-0.1	-13
CC(=O)c1ccc(O)c(CC=C(C)C)c1	2.5	i	-3	-0.7	0.77	22	9	3.5	-22
COc1ccc(-n2c(-c3ccc(Br)cc3)c[n+]3c2SC(C)C3)cc1 (stereo not drawn)	6.6	i	-4	-1.3	0.73	-51	-79	-13	-11
CSCCC(NS(=O)(=O)c1ccc2c(c1)OCCO2)C(=O)N(C)Cc1ccc(F)cc1 (stereo not drawn)	2.8	i	5	1.5	0.7	-8	-15	-1.7	-14
CCOC(=O)c1c(C)[nH]c(C(=O)OCC(=O)c2c(N)n(C)c(=O)n(C)c2=O)c1C	-0.9	.	.	.	0.69	.	.	.	-7
CCOC(=O)CSc1nc2c(c(-c3ccc(C)o3)c1C#N)CCCC2	-15	.	11	-1.0	0.67	.	.	.	27
N#C/C(=C\c1cccc([N+](=O)[O-])c1)C(=O)NCc1cccnc1	1.7	.	2	-1.6	0.68	.	.	.	.
Cc1cc(C)n(CCc2nc(-c3ccc(C)o3)cs2)n1	5.8	.	-1	-1.3	0.78	.	.	.	95*
Cc1ccccc1-c1noc(N)c1C#N	2.1	.	12	1.8	0.69	.	.	.	-4
CCOc1ccc(N(CC(=O)Nc2cccc(C)c2C)S(=O)(=O)c2c(C)[nH]c(=O)[nH]c2=O)cc1	0.4	i	6	3.7	0.65	-3	-6	-4.1	.
CN(C)c1ccc(N=Nc2ccccc2C(=O)OCC(=O)Nc2ccccc2C(F)(F)F)cc1	5.9	i	-1	3.1	0.72	14	24	-1.3	.
CCOc1ccc(C(=O)NC2CCCCCCC2)cc1	3.9	i	-3	2.2	0.72	11	8	3.3	5
Cc1nc2ccc(S(=O)(=O)NCC(=O)NCCN3CCCCCC3)cc2s1	0.8	.	-1	5.0	0.68	.	.	.	-73
O=C(NNc1cc(N2CCOCC2)nc(N2CCOCC2)n1)c1ccc(Cl)c(Cl)c1	2.6	i	9	2.3	0.69	2	-2	3.7	-5
Cc1ccc(C)c(N2C(=O)c3ccc(C(=O)OCC(=O)c4c(N)n(C)c(=O)n(C)c4=O)cc3C2=O)c1	0.7	i	-8	-1.3	0.71	6	5	4.0	.
CCOCCCN1C(=O)C2C(C(=O)Nc3ccc(OCC)cc3)C3C=CC2(O3)C1C(=O)NC1CCCCC1 (stereo not drawn)	4.3	.	5	0.3	0.7	.	.	.	-2
CCc1nc2ccc(C(=O)NCc3ccc4c(c3)OCO4)cn2c1N(CC)Cc1cccc(Br)c1	.	i	.	3.6	.	-4	-1	6.4	.
CCOc1cccc(NC(=O)C(Cc2cccs2)c2nn[nH]n2)c1 (stereo not drawn)	4.6	.	6	0.9	0.68	.	.	.	1
COc1ccc(NC(=O)c2cc(-c3ccc(F)cc3OC)n[nH]2)c(C)c1	.	i	.	-0.3	.	-5	-14	1.0	.
CC(C)C[C@H](NC(=O)NC1CCCc2ccccc21)C(=O)O (stereo partly drawn)	1.5	i	4	-1.0	0.69	0	0	6.1	-4
O=C(c1ccc(Br)o1)N1CCC(c2nc3ccccc3[nH]2)CC1	3.3	i	7	4.3	0.69	0	3	-2.2	.
COc1ccc(CCN2CN(S(=O)(=O)c3ccccc3)c3nc4ccccc4nc32)cc1OC	2.1	.	1	1.6	0.7	.	.	.	.
COc1ccc(S(=O)(=O)N(CCc2ccccc2)CC(=O)O)cc1Cl	5.9	.	4	-1.2	0.75	.	.	.	-13
CC(C)(C)c1ccc(S(=O)(=O)C(C)(C)C)cc1	4.3	i	3	-0.9	0.64	-7	5	-4.6	-1
CC[C@H](C)[C@H](NC(N)=O)C(=O)Nc1ccc(C)cc1	3.8	i	5	-1.1	0.71	11	7	-0.1	13
O=C(Nc1ccc2c(c1)OCO2)N1CCN(c2ccccc2)CC1	7.2	i	6	2.6	0.7	0	9	-2.3	58
COC(=O)/C=C1\S/C(=N\N=C\CC(=O)OC)NC1=O	.	i	-3	0.1	.	.	.	.	12
CC1CC(C)C[N+](=C2C=C(N3CCCC3)CC(C)(C)C2)C1 (stereo not drawn)	11	i	3	0.2	0.71	-50	-70	-9.3	.
O=C(NC(=S)NNS(=O)(=O)c1ccccc1)c1ccccc1[N+](=O)[O-]	0.7	i	-3	0.2	0.64	-15	-5	8.3	.
CCN(C(=O)COC(=O)CSc1cc(C)c2ccccc2n1)c1ccccc1	1.4	i	-4	-6.9	0.71	-13	-15	1.3	2
CC(C)CCNC(=O)c1csc2c1CCCCC2	5.3	i	-318	-1.9	0.69	.	.	.	-13
CCS(=O)(=O)c1ccc(-c2csc(-c3ccc(Cl)cc3)n2)c(Cl)c1Cl	0.5	.	15	-2.2	0.75	.	.	.	-3
S=C1NC2=C(CCC/C2=C\c2ccccc2)C(c2ccccc2)N1 (stereo not drawn)	1.6	.	-2	0.9	0.64	.	.	.	31
COc1cc(/C=C2\C(=O)NN(c3ccccc3)C2=O)ccc1OCC(N)=O	7.2	i	.	.	0.68	11	3	-7.1	96*
CC1CCCCN1C(=O)COC(=O)/C=C/c1ccc2ccccc2n1 (stereo not drawn)	0.9	i	0	-6.7	0.69	2	-13	-1.2	2

The list continues:
Compound	UCH37 DUB inh	FGF22 binding	B2AR ag	HNF4A DNA FP	E coli growth	rRNA inh HTS	rRNA inh HTS OD600	rRNA inh HTS RFP	ALR inh
Cc1nn(S(=O)(=O)c2ccc(Cl)cc2)c(C)c1Sc1ccc([N+](=O)[O-])cc1	3.5	i	1	-0.7	0.69	-28*	-3.4*	-2.7*	0
C[C@H]1CN([C@@H](C)CO)C(=O)c2cc(C#CC3CCCC3)cnc2O[C@H]1CN(C)C(=O)Cc1ccccn1	.	i	.	2.6	.	11&4	11&-1	-1.8&-0.2	.
Cc1cc(Br)ccc1NC(=O)CN(C)C(=O)C1CCN(C(=O)c2ccc(F)cc2)CC1	1.2	i	0	-2.7	0.68	5	1	-1.8	-1
Cc1c(C(=O)C(C)C)n(C)c2ccccc12	0.2	.	-2	0.0	0.71	.	.	.	6
CON(C)S(=O)(=O)c1cccc(C(=O)Nc2cccc(S(=O)(=O)NC3=NCCCCC3)c2)c1	0.4	i	1	-2.1	0.71	-6	-6	0.5	.
CCc1ccccc1NC(=O)CCc1c(C)nn(-c2ccc(N3CCOCC3)nn2)c1C	0.5	i	-14	-3.3	0.68	21	20	-0.8	3
O=[N+]([O-])c1ccc2[nH]c(O)c(N=NC3CCS(=O)(=O)C3)c2c1 (stereo not drawn)	4.6	i	7	-1.2	0.71	8	7	0.1	-1

Reprinted at random: 2 compounds from above, in no set order.
Compound	UCH37 DUB inh	FGF22 binding	B2AR ag	HNF4A DNA FP	E coli growth	rRNA inh HTS	rRNA inh HTS OD600	rRNA inh HTS RFP	ALR inh
Cc1cn([C@H]2C[C@H](O)[C@@H](/C=C/C(=O)NCc3ccc4c(c3)OCO4)O2)c(=O)[nH]c1=O	.	i	.	-1.9	.	-3	-1	-5.0	.
CN(C)c1ccc(N=Nc2ccccc2C(=O)OCC(=O)Nc2ccccc2C(F)(F)F)cc1	5.9	i	-1	3.1	0.72	14	24	-1.3	.

Individual results from above.
Reading of Cc1c(C(=O)C(C)C)n(C)c2ccccc12 under E coli growth: 0.71
Reading of C[C@H]1CN([C@@H](C)CO)C(=O)c2cc(C#CC3CCCC3)cnc2O[C@H]1CN(C)C(=O)Cc1ccccn1 under rRNA inh HTS OD600: 11&-1
Reading of O=[N+]([O-])c1ccc2[nH]c(O)c(N=NC3CCS(=O)(=O)C3)c2c1 (stereo not drawn) under HNF4A DNA FP: -1.2
